HKDC1 inhibitor: blocks human hexokinase HKDC1 activity | Q2TB90 | recombinant HKDC1, G6PDH/diaphorase resazurin coupled fluorescence | inhibition, % at 20 µM | 340,000 compounds, 0.16% hits;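 active means inhibition above about 35% when tested at 20 µM, limit read from the data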;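 further: plate controls were DMSO wells with enzyme for no effect and DMSO wells lacking enzyme for full effect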
Target sequence (Q2TB90 whole entry, looked up): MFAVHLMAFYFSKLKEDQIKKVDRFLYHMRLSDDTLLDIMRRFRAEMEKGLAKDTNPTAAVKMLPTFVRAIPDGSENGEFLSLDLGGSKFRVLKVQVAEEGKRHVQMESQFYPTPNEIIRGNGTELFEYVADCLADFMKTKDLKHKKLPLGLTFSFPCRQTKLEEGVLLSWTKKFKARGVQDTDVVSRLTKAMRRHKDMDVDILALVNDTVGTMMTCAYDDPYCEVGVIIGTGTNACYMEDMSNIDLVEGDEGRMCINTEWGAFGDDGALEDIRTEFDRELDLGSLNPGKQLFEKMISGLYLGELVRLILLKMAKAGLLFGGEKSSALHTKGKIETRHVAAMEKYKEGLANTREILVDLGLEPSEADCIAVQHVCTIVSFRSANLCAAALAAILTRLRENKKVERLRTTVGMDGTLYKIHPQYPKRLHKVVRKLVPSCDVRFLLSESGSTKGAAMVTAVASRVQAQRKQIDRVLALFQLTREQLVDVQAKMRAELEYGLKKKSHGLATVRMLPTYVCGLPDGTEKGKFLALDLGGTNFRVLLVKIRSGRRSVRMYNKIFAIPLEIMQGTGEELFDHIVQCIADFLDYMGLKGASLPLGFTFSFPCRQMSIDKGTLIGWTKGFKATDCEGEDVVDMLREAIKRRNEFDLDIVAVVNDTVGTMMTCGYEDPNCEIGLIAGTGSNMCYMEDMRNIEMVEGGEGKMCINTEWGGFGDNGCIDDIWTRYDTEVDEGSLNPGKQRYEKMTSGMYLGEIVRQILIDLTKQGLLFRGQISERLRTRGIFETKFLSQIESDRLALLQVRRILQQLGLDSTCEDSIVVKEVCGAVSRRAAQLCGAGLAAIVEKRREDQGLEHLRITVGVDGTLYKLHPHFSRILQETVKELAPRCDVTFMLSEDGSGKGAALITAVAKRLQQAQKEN
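Material: recombinant HKDC1 hexokinase; Amount: HKDC1 at 5 µg/mL; Medium: Tris pH 8.0 buffer with MgCl2, Tween-20, BSA, BME; Schedule: 90 min reaction incubation at room temperature, dark; Technique: coupled resazurin fluorescence, excitation 525 nm, emission 613 nm.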
Gli-Sufu block: antagonists of Gli-Sufu signaling; 340,000 compounds, 0.74% hits; Sufu-KO-LIGHT fibroblasts, Gli luciferase reporter luminescence; inhibition, % at 5 µM;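 active means inhibition above about 55%, limit read from the data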;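 further: 0% = DMSO-treated cells and 100% = wells with medium but no cells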
Jurkat NFkB inh: inhibitors of the PMA/ionomycin-induced NF-kB reporter in Jurkat cells. PMA/ionomycin-induced NF-kB luciferase reporter, luminescence. 330,000 compounds, 0.53% hits. inhibition, % at 4 µM; in the data active means inhibition above about 50%
Apaf-1 inh: blocks human Apaf-1 apoptosome activity | O14727 | reconstituted apoptosome caspase-3 activity, DEVD-Rh110 fluorescence | inhibition, % at 20 µM | 330,000 compounds, 0.71% hits | AID 489030; active means inhibition of at least 40% at 20 µM;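 further: plate controls were DMSO wells for no effect and DEVD-CHO caspase inhibitor wells for full effect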
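Material: biochemical Apaf-1 apoptosome reconstitution. Medium: Hepes buffer, pH 7.5. Also added: cytochrome c activation, bis-DEVD rhodamine 110 substrate. Timing: 30 min compound preincubation, 50 min activation, room temperature. Measured by: rhodamine 110 fluorescence at Ex 480/Em 540 nm.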
697 NFkB inh: inhibitors of the PMA/ionomycin-induced NF-kB reporter in 697 B cells. 697 B-cell NF-kB luciferase reporter, 16 h. inhibition, % at 4 µM. 330,000 compounds, 0.33% hits. AID 435022; in the data active means inhibition above about 35%
UBC13 polyUb: blocks human UBC13 polyubiquitin chain formation | TR-FRET | AID 485273 | inhibition, % at 20 µM | 330,000 compounds, 0.47% hits; in the data active means inhibition above about 45%, passing the limit was not always enough
* = called active by the depositor; x = no result given.

Labels used below – A = HKDC1 inhibitor; B = Gli-Sufu block; C = Jurkat NFkB inh; D = Apaf-1 inh; E = 697 NFkB inh; F = UBC13 polyUb
#1 Cc1ccc(CCNC(=O)c2nnc(CS(=O)(=O)c3ccccc3)o2)cc1
  A = -3.7	B = -8.6	C = 2.2	D = 3.8	E = 6.2	F = 5.3
#2 O=C(NCc1ccco1)c1ccc2c(c1)C(=O)N(C1CCCCC1)C2=O
  A = -4.2	B = 1.0	C = -1.3	D = 7.8	E = 19.8	F = 10.9
#3 COc1ccc(NS(=O)(=O)c2ccc(NC(=S)NC(=O)c3ccc(Br)cc3)cc2)nn1
  A = -0.8	B = 4.2	C = -1.7	D = 4.4	E = -47.7	F = -31.3
#4 O=C(COC(=O)c1ccc(O)cc1O)c1ccc2c(c1)OCO2
  A = -8.6	B = -48.6	C = -36.0	D = 7.1	E = 22.3	F = 6.9
#5 Cc1ccc(SCC(=O)Nc2ccc(S(N)(=O)=O)cc2)cc1
  A = -6.9	B = -7.8	C = 13.7	D = -1.3	E = 9.6	F = 15.9
#6 Cc1ccc(CNCc2cc3c(C(C)(C)C)nn(-c4ccccc4)c3[nH]c2=O)cc1
  A = -10.2	B = 2.3	C = 3.3	D = 11.7	E = -13.0	F = 2.5
#7 COC(=O)COc1cccc(NC(=O)COc2ccccc2)c1
  A = -0.4	B = 3.7	C = 10.2	D = -2.3	E = 30.8	F = 10.5
#8 Cc1cccc(C)c1NC(=O)CSc1nnc(-c2ccco2)n1N
  A = -4.2	B = -5.4	C = -4.3	D = -2.2	E = 1.0	F = -2.2
#9 CCCN1C(=O)c2ccc(C(=O)Nc3ccc4c(c3)OCO4)cc2C1=O
  A = -1.2	B = -11.8	C = 4.3	D = -1.3	E = 36.0*	F = -0.4
#10 CCCCc1nc(N2CCOCC2)c(C#N)c2c1COC(C)(C)C2
  A = 3.7	B = -2.6	C = -6.5	D = 5.3	E = -4.2	F = 7.9
#11 CC(C)COc1ccc(C(=O)Nc2ccccc2[N+](=O)[O-])cc1
  A = -2.8	B = 40.8	C = -59.1	D = 10.9	E = -50.8	F = 4.1
#12 COc1ccc(C(=O)COC(=O)c2cc(=O)c3ccccc3o2)cc1
  A = -2.5	B = 8.9	C = 1.8	D = 2.6	E = 3.4	F = 1.4
#13 COc1cc(/C=C2\NC(=S)N(C)C2=O)ccc1OCc1cccc(F)c1
  A = 2.6	B = 5.5	C = -7.5	D = 7.6	E = -20.8	F = -8.7
#14 Cc1ccc(-c2nn(-c3ccccc3)c3[nH]c(=O)c(CNCc4ccccc4)cc23)cc1
  A = -12.0	B = -1.1	C = 9.6	D = 18.0	E = 3.1	F = -1.5
#15 Cc1cc(C)c2c(CC(=O)NN(C)C)coc2c1
  A = -4.8	B = -9.3	C = -7.7	D = 0.1	E = 9.5	F = 0.2

Compound profiles, as listed above. Order of screens: HKDC1 inhibitor, Gli-Sufu block, Jurkat NFkB inh, Apaf-1 inh, 697 NFkB inh, UBC13 polyUb
CCCCc1nc(N2CCOCC2)c(C#N)c2c1COC(C)(C)C2 as listed: 3.7, -2.6, -6.5, 5.3, -4.2, 7.9
CC(C)COc1ccc(C(=O)Nc2ccccc2[N+](=O)[O-])cc1 as listed: -2.8, 40.8, -59.1, 10.9, -50.8, 4.1
O=C(NCc1ccco1)c1ccc2c(c1)C(=O)N(C1CCCCC1)C2=O as listed: -4.2, 1.0, -1.3, 7.8, 19.8, 10.9
Cc1cccc(C)c1NC(=O)CSc1nnc(-c2ccco2)n1N as listed: -4.2, -5.4, -4.3, -2.2, 1.0, -2.2
CCCN1C(=O)c2ccc(C(=O)Nc3ccc4c(c3)OCO4)cc2C1=O as listed: -1.2, -11.8, 4.3, -1.3, 36.0*, -0.4

Next structures follow.
Labels used below – A = HKDC1 inhibitor; B = Gli-Sufu block; C = Jurkat NFkB inh; D = Apaf-1 inh; E = 697 NFkB inh; F = UBC13 polyUb
#16 CC(=O)c1sc(NC(=O)c2ccc(F)c(F)c2)nc1C
  A = 17.2	B = -18.4	C = -41.0	D = 4.2	E = -40.9	F = -4.9
#17 COc1ccc2cc(C#N)c(N3CCN(Cc4nnnn4CCC(C)C)CC3)nc2c1
  A = 6.7	B = 16.6	C = -6.7	D = 26.5	E = -1.8	F = 27.7
#18 O=C1COc2ccc(C(=O)c3ccccc3C(=O)NCc3ccco3)cc2N1
  A = -0.3	B = -2.2	C = -26.6	D = 13.7	E = -34.2	F = -2.4
#19 Fc1ccc(-c2cc3nc(-c4ccccc4)cc(N4CCOCC4)n3n2)cc1
  A = -3.7	B = 12.4	C = 15.9	D = -4.5	E = 13.3	F = 30.7
#20 CC1=C(C(=O)Nc2cccnc2)C(c2ccncc2)n2nnnc2N1 (stereo not drawn)
  A = -8.3	B = 1.7	C = 9.8	D = -2.6	E = -3.4	F = 6.5
#21 CC(C)c1nc2n[nH]c(N)c2c2c1CSC(C)(C)C2
  A = -3.6	B = -2.9	C = -12.6	D = 13.2	E = -4.8	F = -7.9
#22 CCOc1ccc(C(C)=O)cc1CSc1nnc(-c2ccncc2)n1CCOC
  A = -5.7	B = -6.3	C = -0.9	D = 2.8	E = -15.7	F = 1.9
#23 Cc1ccc(OC(=O)c2cccc(S(=O)(=O)N(C)C)c2)c(-n2nc3ccccc3n2)c1
  A = 1.0	B = -29.8	C = -97.4	D = 4.4	E = -62.3	F = 0.7
#24 COc1cc(CC(=O)O)c(C(C)=O)cc1OC
  A = -3.1	B = -0.9	C = -1.5	D = -9.2	E = 19.7	F = -0.3
#25 Cc1cc(-c2cccc([N+](=O)[O-])c2)nc2ccc3ccccc3c12
  A = -4.6	B = -31.8	C = -63.1	D = -4.5	E = -50.7	F = -7.0
#26 CC(=O)c1cccc(S(=O)(=O)NC2CCSc3ccccc32)c1 (stereo not drawn)
  A = -8.1	B = x	C = -6.7	D = 18.5	E = 0.6	F = 2.6
#27 COC(=O)c1sccc1NC(=O)Nc1ccc(C)cc1
  A = -1.0	B = -20.7	C = 7.6	D = -11.2	E = -73.9	F = 9.6
#28 CC1(C)Cc2ccccc2C(/C(C#N)=N/O)=N1
  A = -13.4	B = 0.7	C = -3.3	D = 3.1	E = -36.9	F = -16.6
#29 COc1ccc(-c2cn3ccccc3n2)cc1OC
  A = -1.8	B = -57.0	C = -92.2	D = -1.0	E = -74.3	F = 7.2
#30 O=c1c2c(nc3c(-c4ccccc4)c[nH]n13)CCCC2
  A = 7.0	B = -19.0	C = -0.9	D = -3.5	E = 5.2	F = 8.0

697 NFkB inh, what is marked active above.
item | mol | HKDC1 inhibitor | Jurkat NFkB inh | 697 NFkB inh | UBC13 polyUb
9 | CCCN1C(=O)c2ccc(C(=O)Nc3ccc4c(c3)OCO4)cc2C1=O | -1.2 | 4.3 | 36.0* | -0.4

Some of the entries so far, with tabs.
No.	smiles	HKDC1 inhibitor	Gli-Sufu block	Jurkat NFkB inh	Apaf-1 inh	697 NFkB inh	UBC13 polyUb
16	CC(=O)c1sc(NC(=O)c2ccc(F)c(F)c2)nc1C	17.2	-18.4	-41.0	4.2	-40.9	-4.9
25	Cc1cc(-c2cccc([N+](=O)[O-])c2)nc2ccc3ccccc3c12	-4.6	-31.8	-63.1	-4.5	-50.7	-7.0
21	CC(C)c1nc2n[nH]c(N)c2c2c1CSC(C)(C)C2	-3.6	-2.9	-12.6	13.2	-4.8	-7.9

Next part
Labels used below – A = HKDC1 inhibitor; B = Gli-Sufu block; C = Jurkat NFkB inh; D = Apaf-1 inh; E = 697 NFkB inh; F = UBC13 polyUb
#31 COc1ccc(/C=N/NC(=O)c2c(-c3ccccc3)noc2C)cc1[N+](=O)[O-]
  A = -3.3	B = 15.4	C = 9.4	D = -10.5	E = -19.4	F = -3.2
#32 O=c1c(/C=N/O)c(Nc2ccccc2)nc2ccccn12
  A = 2.9	B = 16.2	C = 5.1	D = -20.7	E = 12.7	F = -5.8
#33 O=C(NNC(=O)c1ccccc1-n1cccc1)c1ccc(Cl)nc1
  A = -5.2	B = 0.0	C = 1.4	D = -8.9	E = 13.7	F = 15.0
#34 COc1ccc(NC(=O)CN(C)CC(=O)Nc2ccc(Cl)cc2[N+](=O)[O-])cc1
  A = 4.8	B = 4.1	C = -0.3	D = 6.7	E = -4.0	F = -18.3
#35 CC(C)Cc1nc2n[nH]c(N)c2c2c1CCCC2
  A = 2.8	B = 1.1	C = 14.2	D = 8.3	E = -1.1	F = 6.0
#36 O=C(NCc1cccs1)C1(S(=O)(=O)c2ccccc2)CC=CC1
  A = -1.6	B = -2.0	C = 8.3	D = -3.2	E = 16.5	F = 1.5
#37 COC(=O)C1=NN(c2ccccc2)C2C(=O)N(c3ccccc3OC)C(=O)C12 (stereo not drawn)
  A = -9.6	B = 2.9	C = 25.7	D = 1.2	E = -27.5	F = -0.6
#38 CCOC(=O)c1ccc(NC(=O)c2ccc3c(c2)OCO3)cc1
  A = 1.6	B = -17.5	C = -40.2	D = 10.4	E = -73.9	F = 3.6
#39 COC(=O)c1sc(NC(=S)NC(=O)c2ccccc2F)nc1C
  A = -13.4	B = -63.1	C = -54.2	D = -4.6	E = -220.9	F = -3.9
#40 C/C(=N/NC(=O)CSc1ccccn1)c1ccc([N+](=O)[O-])cc1
  A = -1.0	B = 8.2	C = 6.9	D = 5.5	E = 16.8	F = 5.9
#41 Cc1cccc(N2C(=O)c3ccc(C(=O)Nc4cccc(C(=O)O)c4)cc3C2=O)c1
  A = -1.4	B = -2.0	C = -10.7	D = 2.9	E = -31.7	F = -9.4
#42 C=CCn1c(CCNC(=O)c2cccs2)nnc1SCC(=O)Nc1cccc(Cl)c1C
  A = -7.0	B = -4.2	C = 5.7	D = -4.5	E = 13.8	F = 1.1
#43 Cc1ccc(-n2c(N)cc(=O)nc2SCC(=O)NC2CCCCC2)cc1C
  A = -5.7	B = -13.1	C = -1.1	D = -9.3	E = -28.0	F = -7.0
#44 CC(NC(=O)CSc1nc(=O)cc(N)n1-c1ccccc1)c1ccccc1 (stereo not drawn)
  A = 9.0	B = -12.3	C = -11.3	D = 5.1	E = 5.2	F = -0.5
#45 CCCN(CCC)C(=O)/C=C/c1cccc([N+](=O)[O-])c1
  A = -8.9	B = -1.6	C = -0.1	D = -22.9	E = 0.3	F = 11.7

Bioassay records as filed in PubChem.

This is a subset; count on the stated rates, not on these rows.
